Sa ugtP lethal = growth inhibition of ugtP-null S. aureus, primary screen, RN4220 ugtP deletion, OD600. 16 h; some inactives read as strong as hits. growth inhibition, % (test concentration not listed). actives 0.54% (n = 330,000). AID 1259309, 2017;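 active means z-score under -3 and OD600 up to 0.15 on both plates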;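 further: plate controls were untreated wells for no effect and antibiotic for full effect; wells of about 80 µL received 100 nL stock; the first replicate is given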
BJeLR viability = MLPCN primary cell-based screen for lethality selective to Ras in HRASV12 cells; BJeLR (HRASV12) viability, CellTiter-Glo ATP luminescence, 48 h; reference of the scale not given here; inhibition, % (no concentration beside the values); actives 0.17% (n = 300,000);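 active means replicate mean above 50%; inconclusive means above 50% but judged a plate artefact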;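 further: 50 nL library stock added to about 25 µL; numbers are from one replicate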
Autofluor counter = compound fluorescence in toxin protease inhibitor counterscreen | compound autofluorescence counterscreen, microsphere flow cytometry; stronger effect = higher value | fluorescence intensity (concentration not given with the values) | AID 624483 | actives 3.1% (n = 360,000);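 active means at least 3 SD above the mean of all compounds, about 16000 in these data; inconclusive means too few beads counted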;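 further: 100 nL of 1 mM stock went into each well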
PrP 5UTR inh = inhibition of PrP 5' UTR reporter expression. cell-based PrP 5' UTR mRNA reporter, plate reader. inhibition, % (no concentration beside the values). actives 0.35% (n = 340,000). AID 488862, 2010;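 active means every replicate at 50% or more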;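 further: 0 = median of the neutral control wells; tested in H4 reporter cells; numbers are from one replicate; inactives centre near -14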
RN4220 kill = growth inhibition of S. aureus RN4220, primary screen, OD600; 16 h; inhibition, % (concentration not given with the values); actives 0.33% (n = 330,000);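 active means z-score of -3 or lower and OD600 up to 0.18 on both plates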;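 further: plate controls were untreated cells for no effect and reference antibiotic for full effect; stock transfer was 100 nL into about 80 µL; one replicate is shown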
Mtb hypoxia inh = PubChem AID 1159583; M. tuberculosis hypoxia-regulated fluorescent reporter, fluorescence; fluorescence inhibition, % (concentration not given with the values); actives 0.1% (n = 300,000);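 active means 35 to 45% if threefold the growth effect, above 45% if 1.5-fold the growth effect; inactive means the rest, general growth blockers included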;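 further: wells of about 50 µL received 100 nL stock; 0% = vehicle wells and 100% = reference inhibitor wells; whole bacteria with a GFP reporter of the hypoxia response; strong numbers were not always called active; many hits fall short of the cut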
Mtb hypoxia inh growth = further read-out of Mtb hypoxia inh, marked with its call; growth inhibition, %; measured here: M. tuberculosis growth (absorbance);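 0% = vehicle and 100% = reference antibiotic; read after six days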
* = called active by the depositor; ? = inconclusive; / = not tested or not shown; & = joins results of further samples.

SMILES	Sa ugtP lethal	BJeLR viability	Autofluor counter	PrP 5UTR inh	RN4220 kill	Mtb hypoxia inh	Mtb hypoxia inh growth
CCCCN(C(=O)c1cc2c(s1)CCC2)c1c(N)n(CC(C)C)c(=O)[nH]c1=O	4	/	3802	-23	1.0	3	-2
COc1ccc(S(=O)(=O)N2CCOC2CNC(=O)C(=O)NCCCN2CCOCC2)cc1C (centres undefined)	10	3	6469	-2	2.2	-5	-5
O=C(NCC(c1cccs1)N1CCOCC1)c1cn(-c2ccccc2)nc1-c1ccccc1 (centres undefined)	-15	/	/	-5	1.9	3	0
COc1ccc(/C=N/n2c(C)cc(C)cc2=O)cc1	/	-7	2541	-14	/	/	/
Cc1cc(C)c2c(=O)[nH]n(C3CCOC(C)(C)C3)c2n1 (centres undefined)	10	3	4195	-37	3.9	5	6
CN(C)C(=O)c1ccc(NC(=O)COc2cccc3c2OC(C)(C)C3)cc1	1	/	/	6	4.5	-10	4
Cc1cc(=O)n2[nH]c(NCc3c(F)cccc3Cl)nc2n1	5	4	4964	7	3.7	23	9
O=C(CCN1CCN(c2ccc([N+](=O)[O-])cc2)CC1)c1ccc(Cl)cc1	/	-10	3555	-23	/	/	/
COc1ccc(C=NNC(=O)c2cccc(NC(=O)c3ccccc3Cl)c2)cc1	-1	/	/	/	-2.3	17	5
CCOc1cc2c(cc1OCC)-n1cccc1C(c1ccc(C)cc1C)NC2 (centres undefined)	-16	-3	3579	-10	-1.7	7	6
Cc1nn(-c2ccccc2)c(C)c1C(=O)OCC(=O)NCc1ccco1	-3	9	4305	-17	2.8	/	/
CCOC(=O)Cn1cc([N+](=O)[O-])nc1[N+](=O)[O-]	38	-3	3805	-7	6.3	8	11
CCc1nnc(NC(=O)c2cccc(S(=O)(=O)N3CCc4ccccc43)c2)s1	-14	-7	2942	-9	-8.6	16	-16
COc1ccc(-c2ccnc3nc(N4CCOCC4)nn23)cc1	2	-2	15325	-5	4.0	8	-5
O=C(CNC(=O)c1cccc(F)c1)OCC(=O)N1CCCCC1	3	1	2522	-42	3.1	0	-1
Cc1cc(N2CCCCC2)n2ncc(-c3ccc(Cl)cc3)c2n1	85*	5	4207	-20	-0.5	-10	3
CC(=O)Nc1ccc(C(=O)COC(=O)CCN2C(=O)C3CC=CCC3C2=O)cc1 (centres undefined)	-3	6	5958	-6	1.6	-4	9
O=C(NCCN1CCOCC1)C1CCC(=O)N1Cc1ccc(F)cc1 (centres undefined)	1	3	24197*	-18	8.4	15	3
O=C(NN=Cc1ccccn1)c1cc(-c2ccncc2)nc2ccccc12	3	/	/	/	5.6	1	2
CN(C)C=Nc1nc2ccccc2nc1N1CCCC1	4	8	4782	54*	4.6	8	3
CC(C)C(NC(=O)OC(C)(C)C)C(=O)N1CCCC1C(=O)NC(Cc1ccccc1)C(N)=O (centres undefined)	-2	1	?	8	-2.0	2	-5
COc1cccc(CC2(CO)CCCN(Cc3ccc(OC)c(C)c3OC)C2)c1 (centres undefined)	2	-1	5224	-7	-3.6	-5	-9
CC(C)COc1ccc(C(=O)NNC(=O)CCC(=O)c2cccs2)cc1	14	/	4106	-23	0.4	8	6
COc1cc2c(cc1OC)CN(Cc1cc(=O)n3cc(C)ccc3n1)CC2	8	/	9492	-14	6.2	1	-9
CN(CCCNC(=O)C1CCC(=O)N1Cc1ccc(F)cc1)c1ccccc1 (centres undefined)	14	9	4957	-10	1.2	0	8
CC(C)c1ccc(OCC(=O)N2CCN(c3ccccn3)CC2)c(Br)c1	-7	0	5832	-3	1.7	-2	1
O=C(Nc1cc(C(=O)N2CCOCC2)ccc1N1CCCC1)c1cccs1	2	-5	4285	-22	3.0	8	4
Cc1ccc(N(C(=O)c2ccccn2)C2(C(=O)NC3CCCC3)CCCCC2)cc1	-7	-1	4090	-26	2.2	22	16
CN(C(=O)Nc1ccc(C(C)(C)C)cc1)C1CCCCC1	11	4	3475	-49	2.7	-2	2
CCc1c(C)sc(NC(=O)c2cc(C3CC3)on2)c1C#N	4	4	4497	-3	26	6	8
CCOc1c2ccc(C(=O)NCc3ccco3)cc2nn1CC	-7	-1	3843	-11	-1.7	-2	7
CC(C)n1cc(/C=C2\NC(=O)N(c3cccc(Cl)c3)C2=O)c2ccccc21	-6	2	19627*	-57	8.2	2	6
O=C(NN1C(=O)C2C(c3ccccc3)C=CC(c3ccccc3)C2C1=O)c1ccccc1 (centres undefined)	6	6	1978	-18	4.1	2	-3
O=[N+]([O-])c1cc([N+](=O)[O-])c(Oc2ccc(F)cc2)cc1NN1CCCCC1	7	-4	4116	-7	4.9	18	4
COc1cc(S(=O)(=O)N2CCCCC2)ccc1NC(=O)c1ccc(F)cc1	0	5	10388	-21	2.0	1	6
COc1ccccc1C(=O)Nc1cccc2cccnc12	-9	-2	3468	-17	-6.9	14	15
CCOC(=O)N1CCC(NC(=O)Cc2cn(C)c3ccccc23)CC1	10	2	2807	4	-3.4	/	/
COc1ccc(C)cc1S(=O)(=O)N(C)CC(=O)N1CCN(c2ccccc2)CC1	6	2	4484	-27	5.6	1	4
O=[N+]([O-])c1ccccc1SNc1ccccn1	-1	3	2506	-6	5.1	8	-2
O=C(CCn1c(=O)[nH]c2ccsc2c1=O)N(CCc1ccccc1)Cc1ccccc1	-16	-11	3923	3	-0.2	-7	4
Cc1c(NC(=O)CN2C(=O)NC(C)(c3ccccc3)C2=O)c(=O)n(-c2ccccc2)n1C (centres undefined)	0	-2	2449	-4	5.1	5	1
CC(C)COC(=O)c1ccccc1C(=O)OCC(C)C	5	-2	4488	-4	3.2	/	/
NC(=O)Cn1c(=O)n(CCC(=O)Nc2ccc(F)cc2)c(=O)c2sccc21	7	0	5336	-7	3.0	-3	-2
CCN1CCCC1CN(Cc1cc2ccc(C)cc2[nH]c1=O)C(=S)Nc1ccc(F)cc1 (centres undefined)	13	6	4284	16	1.7	0	-11
Cc1ccc(CNC(=S)N(C)C)cc1	14	5	/	-25	2.4	7	0
O=C(NN=Cc1cc(Br)cs1)c1ccccc1[N+](=O)[O-]	6	/	/	/	8.1	13	7
Cc1ccc(C(=O)NNC(=S)NC(=O)c2ccc(Cl)cc2Cl)cc1	68	-3	10179	-20	74	14	0
COc1ccc(NC(=O)CSc2nnc(C3CCCCC3)n2N)cc1OC	10	3	5213	-24	3.6	0	-6
O/N=C/c1ccn(-c2ccc(Br)cc2)c1	/	2	4189	-37	/	/	/
Cc1nn(C(C)(C)C)c(C)c1C=NOC(=O)Nc1ccc(Cl)c(Cl)c1	-39	/	/	/	-10.0	-16	-6
COc1ccc(NC(=O)N(C)CC2Oc3ccc(NC(=O)Cc4ccccc4)cc3CC(=O)N(C(C)CO)CC2C)cc1 (centres undefined)	13	/	/	/	3.8	5	13
CC(C)CNC(=S)N1CCC(Cc2ccccc2)CC1	3	-1	?	4	-2.0	8	15
Cc1ccc(C(=O)NC2CCN(C(=O)N3CCOCC3)CC2)cc1	6	-3	9947	-25	3.3	9	4
CSCCC(NC(=O)c1ccco1)C(=O)N1CCCC(C(F)(F)F)C1 (centres undefined)	0	/	8291	-7	0.5	4	1
CC(C)c1ccc(S(=O)(=O)Nc2ccc(O)c(Sc3ncn[nH]3)c2)cc1	-2	5	5368	-19	4.1	-2	-1
CC(C)(C)OC(=O)N1CCCN(C(=O)Nc2ccc(OC(F)(F)F)cc2)CC1	2	3	2987	-11	-0.5	12	4
CC(C)[C@@H]1NC(=O)c2cc([N+](=O)[O-])cc(I)c2OCC[C@@H](C(N)=O)NC(=O)[C@H](CCC(=O)O)NC1=O	/	-3	3894	-12	/	/	/
NCC1OC(OC2C(N)CC(N)C(OC3OC(CO)C(O)C(N)C3O)C2O)C(N)CC1O (centres undefined)	-2	/	/	/	5.6	2	4
CCOC(=O)c1cccc(N/C=C/C(=O)c2ccc(OC)c(OC)c2)c1	-9	-1	2511	-71	-5.8	/	/
CN(C)CCNC(=O)c1ccc2c(=O)n(Cc3ccc(Cl)cc3)c(=S)[nH]c2c1	5	1	4102	15	-6.2	11	-2

Some of the entries above, reformatted:
Results follow in this order: Sa ugtP lethal	BJeLR viability	Autofluor counter	PrP 5UTR inh	RN4220 kill	Mtb hypoxia inh	Mtb hypoxia inh growth
Cc1nn(C(C)(C)C)c(C)c1C=NOC(=O)Nc1ccc(Cl)c(Cl)c1
    -39	/	/	/	-10.0	-16	-6
Cc1ccc(C(=O)NC2CCN(C(=O)N3CCOCC3)CC2)cc1
    6	-3	9947	-25	3.3	9	4

Next structures.
SMILES	Sa ugtP lethal	BJeLR viability	Autofluor counter	PrP 5UTR inh	RN4220 kill	Mtb hypoxia inh	Mtb hypoxia inh growth
CCOC(=O)C1CCCN(C(=O)COC(=O)c2cccs2)C1 (centres undefined)	5	/	3106	-19	1.5	3	5
CC(C)CN1CCC(=O)N(C(CSc2ccc(Br)cc2)Cc2ccccc2)CC1 (centres undefined)	7	/	/	/	1.6	3	4
COCCCNC(=O)CN1C(=O)CSc2ncccc21	0	-1	5595	-10	3.6	/	/
O=C(c1ccccc1)c1ccc(OC(=O)C2CCCCC2)cc1	16	16	4112	-8	4.9	19	5
CCc1cccc(NC(=O)CNC(=O)N2CC(=O)Nc3ccccc32)c1	9	7	5781	-25	-1.4	7	2
C[N+]1(C)C2CCC1CC(OC(=O)C(CO)c1ccccc1)C2 (centres undefined)	0&3&1	18	4356	-35	4.1&3.8&3.3	10&5&3	5&-6&10
Nn1c(-c2ccccc2)nc2cc(Cl)ccc2c1=O	/	-3	4017	1	/	/	/
COc1nc(N(C)S(=O)(=O)c2ccc(C)cc2)nc(C)c1Br	8	-10	/	-18	1.9	11	-1
O=C(O)c1ccc(-c2nc(-c3ccccc3)cs2)cc1	/	4	2641	-72	/	/	/
COc1ccc(C(=O)NCC(=O)NCC(=O)OCC(=O)c2cccs2)cc1	/	-13	6909	-12	/	/	/
O=C(c1ccc(Cl)c(Cl)c1)N1CCCC1	8	-3	4217	-10	7.8	/	/
CC(=O)Nc1ccc(N(C(=O)c2ccco2)C(C(=O)NC2CCCC2)c2cccs2)cc1 (centres undefined)	2	0	3396	-11	6.7	-4	8
Cc1nc2ccccc2nc1OCc1cccc(Cl)c1	0	7	2974	-3	0.7	10	11
Nc1ccc(Br)c[n+]1Cc1cccc2cccnc12	8	2	4842	-10	4.0	11	8
Cc1ccc(/C=C2\SC(=S)N(CCC(=O)N3CCCCC3)C2=O)cc1	-5	-4	4463	-5	2.7	17	5
Cc1ccc(/C=C(\NC(=O)c2ccccc2)C(=O)NC2CCN(Cc3ccccc3)CC2)o1	2	-4	/	-3	2.0	1	-17

Gathered by group, the entries above containing a Cl atom
SMILES	Sa ugtP lethal	BJeLR viability	Autofluor counter	PrP 5UTR inh	RN4220 kill	Mtb hypoxia inh	Mtb hypoxia inh growth
Cc1cc(=O)n2[nH]c(NCc3c(F)cccc3Cl)nc2n1	5	4	4964	7	3.7	23	9
O=C(CCN1CCN(c2ccc([N+](=O)[O-])cc2)CC1)c1ccc(Cl)cc1	/	-10	3555	-23	/	/	/
COc1ccc(C=NNC(=O)c2cccc(NC(=O)c3ccccc3Cl)c2)cc1	-1	/	/	/	-2.3	17	5
Cc1cc(N2CCCCC2)n2ncc(-c3ccc(Cl)cc3)c2n1	85*	5	4207	-20	-0.5	-10	3
CC(C)n1cc(/C=C2\NC(=O)N(c3cccc(Cl)c3)C2=O)c2ccccc21	-6	2	19627*	-57	8.2	2	6
Cc1ccc(C(=O)NNC(=S)NC(=O)c2ccc(Cl)cc2Cl)cc1	68	-3	10179	-20	74	14	0
Cc1nn(C(C)(C)C)c(C)c1C=NOC(=O)Nc1ccc(Cl)c(Cl)c1	-39	/	/	/	-10.0	-16	-6
CN(C)CCNC(=O)c1ccc2c(=O)n(Cc3ccc(Cl)cc3)c(=S)[nH]c2c1	5	1	4102	15	-6.2	11	-2
Nn1c(-c2ccccc2)nc2cc(Cl)ccc2c1=O	/	-3	4017	1	/	/	/
O=C(c1ccc(Cl)c(Cl)c1)N1CCCC1	8	-3	4217	-10	7.8	/	/
Cc1nc2ccccc2nc1OCc1cccc(Cl)c1	0	7	2974	-3	0.7	10	11

Source: PubChem BioAssay
